Vaccinia mCherry: vaccinia inhibition (mCherry reporter) | 0.63% of 310,000 active | Vaccinia virus mCherry reporter infection, fluorescence; about a quarter of the inactives have no number | AID 720579 | Potency, µM (series often up to 36.5 µM), without a hit: at the highest dose activity change, negative = inhibition, usual class: inhibitors; active = well fitted inhibition curve with a large enough effect; inconclusive = small, poorly fitted or top-dose-only effect; inactive = no such curve, though single readings can be large or run the other way; tested in A549 cells; further: nearly all actives have a fitted effect of over 35% in size; inactives centre near -10
Vaccinia Venus: inhibitors of vaccinia virus (Venus reporter). Vaccinia virus Venus reporter expression, fluorescence. Potency, µM (top dose mostly 36.5 µM), inactives show top-dose activity change, negative = inhibition, usual class: inhibitors. 0.46% of 330,000 active. AID 720580; active means well fitted inhibition curve with a large enough effect; inconclusive means small, poorly fitted or top-dose-only effect; inactive means no such curve, though single readings can be large or run the other way; tested in A549 cells; further: nearly all actives have a fitted effect of over 30% in size; inactives centre near -10
* marks the source's active call; other numbers are inactive results; i = inactive; ? = inconclusive; / = not tested or not shown; & = joins results of further samples; [ ] = dose if it differs, or a comment. On the % scale 0 is the no-effect control and ±100 the full control effect; potency means the concentration at half of the fitted maximal effect.

Second line of a record: Vaccinia mCherry, Vaccinia Venus
- CCOC(=O)[C@]12CCCC=C1N(Cc1ccc(Cl)cc1Cl)C(=O)[C@H](CC(=O)NCCCCc1ccccc1)C2
  i, -3%
- CCCNC(=O)CN1C(=O)NC(Cc2c[nH]c3ccccc23)C1=O (centres undefined)
  -9%, -11%
- Cc1ccc(-n2nc3c(=O)n(CCCC(=O)NCc4ccc(F)cc4)nc(C)c3c2C)cc1
  -24%, -14%
- COc1cccc(C(C)(O)c2nc(-c3cccc(NC(C)=O)c3)cs2)c1 (centres undefined)
  1%, -15%
- CCCCc1c(O)nc(SCC(=O)N2CCOCC2)n(-c2ccccc2OC)c1=O
  -21%, 5%
- C=CCn1c(SCC(=O)c2c(N)n(C)c(=O)n(C)c2=O)nnc1-c1ccoc1C
  i, -3%
- Cc1sc2nc(-c3ccccc3)oc(=O)c2c1C
  5%, 6%
- Cc1n[nH]c(C)c1CCN(C)Cc1cn(C)nc1-c1ccccc1F
  -10%, -10%
- O=c1cc(CO)[nH]nc1CO
  i, -9%
- Cc1ccc(C=NNc2nc3c([nH]2)c(=O)n(C)c(=O)n3C)cc1
  -16%, -8%
- Cc1cc(N/N=C/c2c(O)ccc3ccccc23)nc(-c2ccccc2O)n1
  ?, ?
- Cc1ccccc1-c1nc2sc3c(c2c(=O)n1N)CCCC3
  -1%, -11%
- Cc1ccc2cc(NC(=O)C3(C)CCN3C(C)C)ccc2n1 (centres undefined)
  i, -23%
- O=C(COc1ccc([N+](=O)[O-])cc1)Nc1ccc(N2CCN(C(=O)c3ccco3)CC2)cc1
  -10%, -19%
- Oc1ccccc1/C=N/NP(=S)(c1ccccc1)c1ccccc1
  -15%, ?
- C=CCc1cccc(/C=N/c2ncccc2O)c1O
  -15%, 3%
- CNC(=O)NC(=O)CSc1nnc(-c2ccc(F)cc2)n1CC1CCCO1 (centres undefined)
  7%, 12%
- c1cncc(-c2nc3cc4ccccc4cc3[nH]2)c1
  -2%, -14%
- Cc1nn(C(C)CC(=O)O)c(C)c1Br (centres undefined)
  -13%, -11%
- O=C(NNC(=S)NCc1ccccc1)c1ccc2c(c1)OCO2
  -9%, -21%
- CCN(CC)C(=O)[C@H]1C[C@H](CC(=O)NC/C=C(\C)CCC=C(C)C)C(=O)N2CCc3c([nH]c4cc(CCC(=O)N(C)C)ccc34)[C@]12C
  ?, ?
- COc1ccc2c(Cl)c(C(=O)N/N=C3\CCCC(=O)C3)sc2c1
  -8%, 13%
- CCn1c(SCC(=O)Nc2cc(OC)c(OC)c(OC)c2)nnc1-c1cccs1
  -6%, -20%
- CC(C)(C)NC(=O)C(c1ccc(-c2ccccc2)cc1)n1c(=O)c(-c2cc3ccccc3[nH]2)nc2ccccc21 (centres undefined)
  12%, -1%
- CC(C)c1ccc(S(=O)(=O)c2cn(CC(=O)Nc3ccc(F)cc3)c3ccccc3c2=O)cc1
  -17%, -22%
- Cc1cc(C(=O)OCC(=O)Nc2ccccc2C#N)c(C)o1
  -14%, -8%
- CCN(CC)CCN=Cc1c(O)n(Cc2ccco2)c(=O)[nH]c1=O
  -2%, -3%
- Cc1cc(=O)[nH]c(SCC(=O)N2CCc3ccccc3C2)n1
  -13%, -10%
- COCCNC(=O)CN(Cc1ccc2c(c1)OCO2)C(=O)CCC(=O)Nc1nccs1
  -9%, 0%
- C=CCNC(=O)C1CC2Cn3c(nc4ccccc43)C2N1C (centres undefined)
  i, -10%

A second format for some results above:
Compound | Vaccinia mCherry | Vaccinia Venus
Cc1ccccc1-c1nc2sc3c(c2c(=O)n1N)CCCC3 | -1% | -11%
Cc1ccc(-n2nc3c(=O)n(CCCC(=O)NCc4ccc(F)cc4)nc(C)c3c2C)cc1 | -24% | -14%
CNC(=O)NC(=O)CSc1nnc(-c2ccc(F)cc2)n1CC1CCCO1 (centres undefined) | 7% | 12%
COc1cccc(C(C)(O)c2nc(-c3cccc(NC(C)=O)c3)cs2)c1 (centres undefined) | 1% | -15%
COCCNC(=O)CN(Cc1ccc2c(c1)OCO2)C(=O)CCC(=O)Nc1nccs1 | -9% | 0%
O=c1cc(CO)[nH]nc1CO | i | -9%
Cc1ccc(C=NNc2nc3c([nH]2)c(=O)n(C)c(=O)n3C)cc1 | -16% | -8%

(continued)
Second line of a record: Vaccinia mCherry, Vaccinia Venus
- O=C(NCCOCCn1c(=O)oc2ccccc21)Nc1ccc(Cl)cc1
  25%, 13%
- CCOc1ccc(S(=O)(=O)N2CCN(C(=O)CN3C(=O)NC4(CCCC4)C3=O)CC2)cc1
  i, -10%
- CC(C)(C)c1ccc(OCCC(=O)OCC(=O)Nc2cccnc2Cl)cc1
  i, -6%
- COc1cc([C@@H]2c3cc4c(c(O)c3C[C@H]3COC(=O)[C@@H]32)OCO4)cc(OC)c1OC
  ?, ?
- Cc1cc(=O)[nH]c(NN=C2CCCCC2C)n1 (centres undefined)
  -17%, -13%
- COc1ccc(C=O)c(-c2c(-c3ccccc3OC)sc3ccccc23)c1
  16%, 11%
- COc1ccc(C(O)c2nc(-c3ccccc3C)cs2)cc1 (centres undefined)
  -8%, 6%
- CC(=O)N1CCN(CCS(=O)(=O)c2cc(Cl)ccc2Cl)CC1
  ?, ?
- O=C(COC(=O)c1ccc(Br)o1)NCc1ccc(Cl)cc1
  i, -7%
- CCOC(=O)Cn1c(=O)c(-c2ccccc2N)nc2ccccc21
  21%, 3%
- Cc1ccc(Cl)cc1N1CCN(S(=O)(=O)c2ccc3oc(=O)c4ncn(C)c4c3c2)CC1
  -11%, -7%
- CC(Oc1ccc(Cl)cc1Cl)C(=O)OCC(=O)c1c(N)n(C)c(=O)n(C)c1=O (centres undefined)
  i, -10%
- Nc1ccc2cn[nH]c2c1
  i, -17%
- CC(C)Cn1c([N+](=O)[O-])nc2c1c(=O)[nH]c(=O)n2C
  ?, ?
- CCOc1ccc(CCN2CN(CC)CNC2=S)cc1OCC
  -14%, -5%
- Fc1ccccc1COc1ccc(Br)cc1CNCc1cccnc1
  ?, -19%
- COC(=O)C1CCN(c2nc3ccccc3nc2C(C#N)C(=O)OCC(C)C)CC1 (centres undefined)
  -10%, ?
- COc1ccc(Cc2nnc(N/N=C/c3ccc(O)cc3)[nH]c2=O)cc1OC
  1.1µM*, ?
- COc1ccc(-c2cc(-c3ccccc3)c(C#N)c(SCC(=O)O)n2)cc1
  -30%, -4%
- COc1ccc(CNC(=O)C(c2ccncc2)N(C(=O)Cc2cccs2)c2ccc(C)cc2)cc1 (centres undefined)
  -5%, -17%
- CN(C)CCNC(=O)c1ccc(-n2c(-c3ccccc3)cc3c2CCCCC3)cc1
  i, -23%
- COc1cccc(-c2cc(N3C(=O)Nc4ccccc4N3O)n[nH]2)c1
  i, -5%
- COc1ccc(CNCc2cc3c(cc2[N+](=O)[O-])OCO3)cc1
  -12%, -6%
- CN1CCN(C(=O)c2ccc(-c3ccc(Br)cc3)o2)CC1
  ?, -22%
- Cc1ccc(OCC(=O)NCc2cccs2)c([N+](=O)[O-])n1
  -3%, 4%
- CC(OC(=O)c1ccccc1NCCO)C(=O)NCC(=O)Nc1ccc(F)c(F)c1F (centres undefined)
  -17%, -24%
- CC(C)c1ccc(C(C)NCCS(=O)(=O)c2ccc(Br)cc2)cc1 (centres undefined)
  ?, ?
- Cc1ccc(-n2c(C)c3c(C)nnc(C)c3c2C)cc1C
  i, -17%
- Cc1ccc(C(=O)NCC(C)(C)N2CCOCC2)s1
  -8%, -11%
- COC(=O)c1ccc(Oc2coc3cc(OCc4ccc([N+](=O)[O-])cc4)ccc3c2=O)cc1
  i, -11%
- CCC(C(=O)OC)n1cnc2c(nnn2-c2ccc(OC)cc2)c1=O (centres undefined)
  -10%, -3%
- Cc1ccc(C)c(N2CCN(C(=O)c3ccc(Cn4c(=S)[nH]c5ccc(N6CCOCC6)cc5c4=O)cc3)CC2)c1
  -10%, -13%
- COc1cc(OC)cc(-c2c(-c3ccc(C(C)=O)cc3)c3cc(-c4cccc5[nH]ccc45)ccc3n2C)c1
  -5%, -14%
- CCOC(=O)c1cc(-c2ccc(F)cc2)n(CC(=O)N2CCCC2)c1C
  -11%, -15%
- Cc1ccc(S(=O)(=O)c2nc(-c3ccco3)oc2NCC2CCCO2)cc1 (centres undefined)
  -13%, 2%
- CCN(CC)c1ccc(/C=N/NC(=O)Cc2nnc(NC(=O)Nc3ccccc3)s2)cc1
  ?, -4%
- COc1ccc(CCNC(=O)CSc2nnnn2-c2cccc(C(C)=O)c2)cc1OC
  -5%, 3%
- O=C(NCC(=O)N1CCN(C(=O)c2ccco2)CC1)c1ccc(Cl)cc1
  i, -18%
- COc1ccccc1-c1ccnc(-n2ncc(C(=O)N[C@H]3CCCCNC3=O)c2C2CC2)n1
  -12%, -22%
- CCN(CCCNC(=O)c1cc2c(=O)n(C)c3ccccc3c2s1)c1ccccc1
  ?, -25%
- CCOC(=O)c1cccc(NC(=O)CCc2nc(-c3ccc(C)cc3)no2)c1
  /, -22%
- Cc1sc2nc(CN3CCOCC3)nc(N3CCN(S(=O)(=O)c4ccccc4)CC3)c2c1C
  -11%, -23%
- CCCN(CCC)CCNC(=O)Cn1cnc2sc(C)c(S(=O)(=O)N3CCC(C)CC3)c2c1=O
  -10%, -16%
- O=C(CSc1nc(-c2ccccc2)nc2c1Cc1ccccc1O2)Nc1ccc(C(=O)O)cc1
  -1%, -5%
- Cc1nc2ncnn2c(C)c1CCC(=O)N1CCN(c2cccc(Cl)c2)CC1
  -11%, -3%
- CCOC(=O)C1=CNS(=O)(=O)NC1c1ccc(Br)cc1F (centres undefined)
  i, -6%
- CN(C)c1ccc(CCc2ccnc3ccccc23)cc1
  10%, -17%
- Cc1ccc(S(=O)(=O)N2[C@@H](c3ccccc3F)C(C(=O)O)=CC[C@H]2c2ccc(C(C)C)cc2)cc1
  0%, 0%
- NS(=O)(=O)c1cnccc1Nc1cccc(Br)c1
  -17%, -18%
- CC(C)C1C(=O)N(Cc2cn(CCC3OCCO3)nn2)CCS(=O)(=O)N1Cc1ccc(-c2ccc(Cl)cc2)cc1 (centres undefined)
  -22%, ?
- C/C(=N\NC(=O)Cc1c[nH]c2ccccc12)c1ccc2ccccc2c1
  -18%, -20%
- CCC1=Nc2cc(C(=O)NCCCOC)ccc2Sc2ccc(Br)cc21
  ?, ?
- CC(C)CNC(CC(=O)O)c1ccccc1 (centres undefined)
  i, 0%
- Oc1ccc(-c2nc3ccccn3c2NCc2ccco2)cc1
  -15%[1.46 µM], -4%
- Cc1ccc(S(=O)(=O)N2CCN(c3nc(-c4cccs4)nc4ccccc34)CC2)c(C)c1
  -12%, -5%
- Cc1cccc(NC(=O)CCN2CC(C)OC(C)C2)c1 (centres undefined)
  -13%, -4%
- CNc1nc(-c2cccc(C(=O)N(C)C)c2)cn2ccnc12
  -5%, -8%
- CC1(C)Cc2c(C#N)c(N3CCNCC3)nc(-c3ccco3)c2CS1
  i, -8%
- Cc1c(C(=O)Nc2c(N)nc(SCC(=O)NCC3CCCO3)[nH]c2=O)cccc1[N+](=O)[O-] (centres undefined)
  -6%, -3%
- CCNC(=S)N1CCn2cccc2C1c1ccc(F)cc1 (centres undefined)
  7%, 12%

More results:
Second line of a record: Vaccinia mCherry, Vaccinia Venus
- Cc1nn(C)cc1CN1CCC(n2nccc2NC(=O)CCCc2ccccc2)CC1
  -24%, -14%
- FC(F)C(F)(F)c1cc(-c2ccc(Cl)cc2)n[nH]1
  i, -21%
- CN1CCN(NC(=O)c2cccc(Br)c2)CC1
  -2%, -18%
- CCC1=C2CC[C@H]3C(=O)NC(=O)[C@H]3[C@H]2[C@@]2(Cc3ccccc3)C(=NCC(=O)OC)OC(=O)N2C1=O
  -15%, -5%
- Nc1nonc1-n1nnc(C(=O)N/N=C/c2ccc(Cl)cc2Cl)c1CN1CCCC1
  i, -16%
- CN1CCc2cccc3c2C1Cc1ccc(O)c(O)c1-3 (centres undefined)
  -14%&-14%&-13%, -14%&-7%&-18%
- Cc1ccc(-c2nc(CSc3nc4ccccc4c(=O)n3C)cs2)cc1
  i, -5%
- Cc1ccc(C(=O)N2CCN(c3ccccc3F)CC2)cc1NC1=NC2CS(=O)(=O)CC2S1 (centres undefined)
  i[7.34 µM], -6%[7.34 µM]
- CN(C(=O)c1ccc(NC(=O)Cc2ccc(NC(=O)C3CCN(C(=O)C4CCCC4)CC3)cc2)cc1)C1CC1
  i, -13%
- CCCCN1C(=N)N([C@@H](CCC)CN2CCC[C@H]2CN2C(N)=NC[C@@H]2Cc2ccccc2)C[C@H]1[C@H](C)CC
  -4%, -12%
- Cc1cc(=O)oc2c(C)c(OCC(=O)N3C[C@H]4C[C@@H](C3)c3cccc(=O)n3C4)ccc12
  0%, 0%
- COCC(=O)N1CCC(Oc2ccc(C(=O)N3CCCCCCC3)cc2)CC1
  i, -11%
- CCC1=C(OC(=O)N(CC)CC)N2C(=O)OC(=NCC(=O)OC)[C@]2(Cc2ccccc2)[C@H]2C1=CC[C@H]1C(=O)N(CC(=O)OC)C(=O)[C@H]12
  i, 0%
- COC(=O)c1cccc(NC(=O)CCCN2C(=O)NC3(CCCC3)C2=O)c1
  i, -17%
- CCOC(=O)c1ccc(Nc2cc(C)nc(-c3ccccc3O)n2)cc1
  -20%, -25%
